# Screening results as filed in PubChem BioAssay.
# BJeLR viab HTS – compounds reducing viability of BJeLR cells; AID 2275; viability loss activity score, % (test concentration not listed); actives 0.64% (n = 30,000); BJeLR fibroblasts viability, CellTiterGlo ATP luminescence, 48 h; HRASV12, hTERT and SV40 LT/ST transformed; in the data active means viability loss activity score above about 50%; about a fifth of its hits are not listed in these tables;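 further: higher score means fewer live cells and less ATP luminescence; stock transfer was 50 or 100 nL into about 30 µL; 0% = vehicle wells and 100% = a reference killing control; one replicate is shown; the record names a cut of 85%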
# A1 inh – blocks A1 activity; MEF A1-2A-BIM cells, caspase-Glo luminescence, 3 h; percent of clofoctol signal, DMSO as zero; actives 0.51% (n = 21,000); AID 2241; caspase activation, % (test concentration not listed);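 active means most replicate scores above 10, or exactly half above 10 with mean activity above 10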;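 further: effector caspase 3 and 7 activity cleaving a DEVD luciferin substrate; 50 nL library stock added to about 30 µL; numbers are from one replicate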
# * = called active by the depositor; . = not tested or not shown. Not all compounds are listed; count on the stated rates, not on these rows.
Structure | BJeLR viab HTS | A1 inh
C[C@@H]1CN([C@@H](C)CO)C(=O)c2cc(NC(=O)Nc3ccc(C(F)(F)F)cc3)ccc2O[C@H]1CN(C)C(=O)NC1CCCCC1 | -2.8 | 1.8
Cc1ccc(S(=O)(=O)CCSc2nccc(-c3cccs3)n2)cc1 | -5.1 | .
O=C(Oc1nsnc1N1CCOCC1)c1ccccc1 | -3.1 | .
CCOC(=O)C1=C(C)NC2=C(C(=O)C(C(=O)OC)C(C)C2)C1c1ccccc1 (centres undefined) | 5.6 | .
N#CCS(=O)c1ccccc1 (centres undefined) | -11 | -0.6
COC(=O)C1=C(C)NC(=O)CC1c1ccccc1I (centres undefined) | -0.5 | 0.6
C[C@H](CO)N1C[C@H](C)[C@@H](CN(C)Cc2ccc(-c3ccccc3)cc2)Oc2c(NC(=O)Nc3ccc(F)cc3)cccc2C1=O | 6.0 | .
CCC1(CC)Cc2ccccc2-c2[nH]c(=S)n(Cc3ccccc3)c(=O)c21 | 1.4 | 0.4
O=C1CNC(=S)N1Cc1ccccc1Cl | -0.8 | -0.3
CCC(C)NC(=O)c1cc2cc3cc(OC)ccc3nc2o1 (centres undefined) | -7.1 | .
C[C@H](CO)N1C[C@H](C)[C@H](CN(C)Cc2ccc3c(c2)OCO3)Oc2c(NC(=O)c3ccncc3)cccc2C1=O | -1.9 | .
O=C(NCCN1CCOCC1)c1ccccc1Oc1ccccc1 | -1.0 | 0.7
Cc1noc(C)c1S(=O)(=O)Nc1ccc2c(c1)C(=O)N([C@H](C)CO)C[C@H](C)[C@H](CN(C)C(=O)NC1CCCCC1)O2 | -3.8 | 0.9
COc1ccc(NC(=O)Nc2cccc3c2O[C@@H](CN(C)C(=O)Nc2ccc(OC)cc2)[C@H](C)CN([C@H](C)CO)C3=O)cc1 | -5.2 | .
Nn1c(SCc2ccc(F)c3ccccc23)nc2ccccc2c1=O | 11 | 0.8
CN(C)c1nc(Cl)nc(N(C#N)CN2C(=O)c3ccccc3C2=O)n1 | -3.3 | 0.1
Cc1n[nH]c(=S)n(/N=C/C=C/c2ccccc2)c1=O | -9.3 | .
NC(=O)COc1ccc(C=C2C(=O)c3ccccc3C2=O)cc1 | -7.9 | -0.1
O=S(=O)(c1ccccc1)c1nnn2c1nc(Cl)c1ccccc12 | 1.4 | .
COC(CNC(=O)c1cc(S(=O)(=O)N2CC(C)CC(C)C2)ccc1F)OC (centres undefined) | -3.3 | 0.5
COc1ccc(CN(C)C[C@@H]2Oc3ccc(NC(=O)Cn4cnnn4)cc3C(=O)N([C@H](C)CO)C[C@@H]2C)cc1 | -4.5 | 0.1
Cc1ccc(S(=O)(=O)N(C)C[C@H]2Oc3ccc(NC(=O)C4CCCCC4)cc3C(=O)N([C@@H](C)CO)C[C@@H]2C)cc1 | -3.3 | 0.0
C[C@@H]1CN([C@@H](C)CO)C(=O)c2cccc(NC(=O)c3ccc(-c4nccs4)cc3)c2O[C@@H]1CN(C)S(=O)(=O)c1ccc(Cl)cc1 | 2.5 | .
CN(CC(=O)N1CCc2ccccc21)S(=O)(=O)c1ccc2nc(-c3ccccc3)[nH]c2c1 | -1.6 | 0.5
CC(C)NC(=O)Nc1ccc2c(c1)C(=O)N([C@H](C)CO)C[C@H](C)[C@@H](CN(C)C)O2 | 2.9 | -0.4
CNC(=O)Cn1ncc2c3ccccc3n(Cc3cc(C)ccc3C)c2c1=O | -4.8 | 0.5
O=C(c1ccccc1)N(c1ccc2oc3c(c2c1)CCCC3)S(=O)(=O)c1ccccc1 | -1.5 | -0.4
C[C@H]1CN([C@@H](C)CO)C(=O)c2cc(NS(=O)(=O)c3cccs3)ccc2O[C@H]1CN(C)C(=O)Nc1ccc(F)cc1 | -1.3 | -1.0
Cc1ccc(S(=O)(=O)NC2c3ccccc3Oc3ccccc32)cc1 | 7.3 | 0.5
Cc1cc(O)c2c(c1)C(=O)c1cc(OC3OC(COC(=O)CC(=O)O)C(O)C(O)C3O)cc(O)c1C2=O (centres undefined) | 12 | 0.3
C[C@@H]1CN([C@@H](C)CO)C(=O)c2cccc(NC(=O)NC3CCCCC3)c2O[C@@H]1CN(C)S(=O)(=O)c1cn(C)cn1 | 0.4 | .
C[C@H]1CN([C@@H](C)CO)C(=O)c2cccc(NC(=O)c3nc4ccccc4s3)c2O[C@H]1CN(C)Cc1ccc(C(F)(F)F)cc1 | -1.8 | .
C[C@@H]1CN([C@@H](C)CO)C(=O)c2cccc(NC(=O)c3ccc(-c4nccs4)cc3)c2O[C@H]1CN(C)Cc1ccc(C(F)(F)F)cc1 | -0.9 | .
Cc1ccc(S(=O)(=O)N(C)C[C@H]2Oc3c(NC(=O)c4ccc(-c5nccs5)cc4)cccc3C(=O)N([C@H](C)CO)C[C@@H]2C)cc1 | 0.2 | .
Cc1ccc(Cc2nn3c(C(=O)c4cccs4)nn(-c4ccc(Cl)cc4)c3nc2=O)cc1 | -0.6 | 0.0
C[C@H]1CN([C@@H](C)CO)C(=O)c2cccc(NC(=O)Nc3ccc(F)cc3)c2O[C@@H]1CN(C)C | -1.3 | .
Cc1ccc(C(=O)OC2=C(c3ccccc3)C(=O)c3ccccc3C2=O)cc1 | -9.8 | 8.9
CCC1Oc2ccc(C)cc2N(CC(=O)NCCCN2CCN(c3ccccc3F)CC2)C1=O (centres undefined) | -0.5 | -0.1
C[C@@H]1CN([C@H](C)CO)C(=O)c2cccc(NC(=O)C3CC3)c2O[C@@H]1CN(C)Cc1ccccc1 | -2.0 | .
N=C1S/C(=C/c2ccco2)C(=O)N1c1nccs1 | 5.7 | -4.0

# Reformatted with each value named: entries from further up.
C[C@H]1CN([C@@H](C)CO)C(=O)c2cccc(NC(=O)Nc3ccc(F)cc3)c2O[C@@H]1CN(C)C
  BJeLR viab HTS: -1.3
  A1 inh: .
Cc1ccc(C(=O)OC2=C(c3ccccc3)C(=O)c3ccccc3C2=O)cc1
  BJeLR viab HTS: -9.8
  A1 inh: 8.9
CCC1Oc2ccc(C)cc2N(CC(=O)NCCCN2CCN(c3ccccc3F)CC2)C1=O (centres undefined)
  BJeLR viab HTS: -0.5
  A1 inh: -0.1
C[C@@H]1CN([C@H](C)CO)C(=O)c2cccc(NC(=O)C3CC3)c2O[C@@H]1CN(C)Cc1ccccc1
  BJeLR viab HTS: -2.0
  A1 inh: .

# Additional records
Structure | BJeLR viab HTS | A1 inh
COc1ccc(S(=O)(=O)N(C)C[C@H]2Oc3c(NC(=O)c4cnccn4)cccc3C(=O)N([C@H](C)CO)C[C@H]2C)cc1 | 0.7 | .
N#CCn1cnc2c(cnn2-c2ccccc2)c1=O | 0.8 | 0.3
CCC(C)c1ccc(NC(=O)c2ccc(N(CC)CC)cc2)cc1 (centres undefined) | 7.8 | -0.5
Cc1noc(C)c1NC(=O)Nc1cccc2c1O[C@@H](CN(C)C(=O)Nc1c(C)noc1C)[C@@H](C)CN([C@@H](C)CO)C2=O | 2.5 | .
CNC[C@@H]1Oc2ccc(NC(=O)NC3CCCCC3)cc2C(=O)N([C@H](C)CO)C[C@H]1C | 4.2 | -0.7
Cn1cccc1Cc1nnc(SCC(=O)Nc2ccc3c(c2)OCO3)n1-c1ccc(F)cc1 | 4.7 | 0.1
CCC1C(=NO)C(CC)C(c2ccccc2)NC1c1ccccc1 (centres undefined) | 5.1 | .
COc1ccc(CN(C)C[C@H]2Oc3c(NC(=O)Nc4ccc(F)cc4)cccc3C(=O)N([C@@H](C)CO)C[C@H]2C)cc1 | 1.2 | .
Clc1ccc(N2CCCCCCC2)nn1 | 3.4 | 1.0
CC(C)NC(=O)N(C)C[C@H]1Oc2ccc(NC(=O)CCCN(C)C)cc2C(=O)N([C@@H](C)CO)C[C@H]1C | 4.7 | -0.4
Cc1ccc(NC2CCCCC2NS(=O)(=O)c2ccccc2)cc1 (centres undefined) | 8.1 | 0.2
CCn1c2ccccc2c2cc(NC(=O)Oc3ccccc3)ccc21 | -1.6 | .
C[C@H]1CN([C@@H](C)CO)C(=O)c2cc(NC(=O)C3CCCCC3)ccc2O[C@@H]1CN(C)Cc1ccc(-c2ccccc2)cc1 | -0.6 | 0.2
C/C(=C\Cc1c(O)cc2oc(C)cc(=O)c2c1O)CO[C@@H]1O[C@H](CO)[C@@H](O)[C@H](O)[C@H]1O | 1.7 | 0.3
C[C@H]1CN([C@@H](C)CO)C(=O)c2cccc(NS(=O)(=O)c3cn(C)cn3)c2O[C@@H]1CN(C)Cc1ccc(-c2ccccc2)cc1 | 1.7 | .
O=C(NCC12CC3CC(CC(C3)C1)C2)c1ccccc1 | 5.7 | 0.2
Cc1ccc2oc(-c3ccccc3)cc(=NCCO)c2c1 | 6.4 | -0.6
O=C(O)CCC(=O)N=S(c1ccccc1)c1ccccc1 | 6.8 | -0.3
C[C@H](CO)N1C[C@H](C)[C@H](CN(C)C)Oc2c(NC(=O)c3ccc(-c4nccs4)cc3)cccc2C1=O | 1.2 | .
CCS(=O)(=O)N1CCCC(C(=O)NCCc2ccccc2)C1 (centres undefined) | 0.4 | .
O=C(Nc1ccc(Cl)cc1)N1CCC(C(c2ccccc2)c2ccccc2)CC1 | 3.4 | 0.8
O=C(O)CSc1nc2ccccc2o1 | 2.9 | 0.0
COc1ccc(S(=O)(=O)Nc2cccc3c2O[C@@H](CN(C)CC2CC2)[C@H](C)CN([C@@H](C)CO)C3=O)cc1 | -5.3 | .
CCN1C(N)=C(C#N)C2(CCNCC2)c2nc(C)oc21 | 1.0 | 0.0
CC(C)NC(=O)Nc1ccc2c(c1)C(=O)N([C@H](C)CO)C[C@H](C)[C@H](CN(C)C(=O)NC(C)C)O2 | -4.2 | -0.5
CCc1ccc(NC(=O)C2c3ccccc3C(=O)N(C)C2c2cccs2)cc1 (centres undefined) | 1.6 | .
CC(/C=N/n1c(COc2ccccc2)n[nH]c1=S)=C\c1ccco1 | 5.0 | -0.2
O=C1CCN(Cc2ccccc2)C(=O)N1 | -4.5 | -0.2
CCOC(=O)Cc1c(-c2ccccc2)c2cc(Cl)ccc2[nH]c1=O | -1.4 | -0.4
CC(C)(C)C(=O)C(Cc1c(F)cccc1Cl)C(=O)C(C)(C)C | -3.1 | -0.5
CCOC(=O)C1CCN(S(=O)(=O)c2ccc(N3C(=O)CC4(CCCC4)C3=O)c(Cl)c2)CC1 | 1.5 | .
Cc1cccc(NC2=C(n3nnc4ccccc43)C(=O)c3ccccc3C2=O)c1 | 26 | -1.6
C[C@@H]1CN([C@H](C)CO)C(=O)c2cccc(NC(=O)C3CC3)c2O[C@H]1CN(C)S(=O)(=O)c1ccccc1 | 3.0 | .
C[C@H](CO)N1C[C@H](C)[C@@H](CN(C)S(=O)(=O)c2ccc(F)cc2)Oc2c(NC(=O)c3ccncc3)cccc2C1=O | 2.4 | .
CN(C)c1cc(C(F)(F)F)nc2cc(C(C)(C)C)nn12 | 1.7 | 0.0
c1ccc(-c2nnc(SCCC3OCCCO3)o2)cc1 | 0.9 | -6.0
O=c1cc(-c2ccc(O)cc2)oc2cc(O)c(C3OC(CO)C(O)C(O)C3O)c(O)c12 (centres undefined) | 1.1 | 0.2
Cc1cccc(NC(=O)c2nnn(-c3cccc(C(F)(F)F)c3)c2N)c1 | 1.8 | -0.1
CC(C)NC(=O)Nc1ccc2c(c1)C(=O)N([C@H](C)CO)C[C@@H](C)[C@@H](CN(C)CC1CCCCC1)O2 | -4.5 | 0.0
CSCCC(N)C(=O)NC(CC(C)C)C(=O)NC(Cc1ccccc1)C(=O)O (centres undefined) | -2.7 | 0.3
C[C@@H]1CN([C@H](C)CO)C(=O)c2cc(NC(=O)Nc3ccc(C(F)(F)F)cc3)ccc2O[C@H]1CN(C)S(=O)(=O)c1ccc(F)cc1 | -5.8 | -0.3
C[C@@H]1CN([C@H](C)CO)C(=O)c2cc(N(C)C)ccc2O[C@H]1CN(C)C(=O)Nc1ccc2c(c1)OCO2 | 10 | -0.5
Cc1ccc2oc(=O)c3cc(C(=O)N(Cc4ccco4)C4CCCCC4)sc3c2c1 | 1.2 | .
c1ccc(-c2csc(Nc3nc(NCc4ccco4)nc(N4CCCCC4)n3)n2)cc1 | 3.9 | .
CCOC(=O)c1sc(Nc2ccccc2C(F)(F)F)c(C(=O)OCC)c1N | -7.2 | -0.4
O=C(Nc1ccccc1C(F)(F)F)c1cccs1 | -0.8 | 0.2
O=C(NCCc1ccccc1)C1CC(=O)N(C2CCCC2)C1 (centres undefined) | -7.9 | 0.8
COc1ccc(CN(C)C[C@H]2Oc3ccc(NC(=O)C4CCCCC4)cc3C(=O)N([C@@H](C)CO)C[C@@H]2C)cc1 | -0.5 | 0.2
CCOC(=O)C1=C(c2ccccc2)Nc2nnnn2C1c1ccc(Br)cc1 (centres undefined) | -8.3 | .
O=C(Nc1ccccc1C(=O)O)OCC1c2ccccc2-c2ccccc21 | 2.1 | -1.0
CN(Cc1ccccc1)C(=O)c1noc2c1COc1ccccc1-2 | 2.8 | -0.8
C[C@@H]1CN([C@H](C)CO)C(=O)c2cccc(NC(=O)C3CC3)c2O[C@H]1CN(C)C(=O)Nc1cccc2ccccc12 | 4.7 | .
C[C@@H]1CN([C@H](C)CO)C(=O)c2cccc(NC(=O)Nc3cccc4ccccc34)c2O[C@H]1CN(C)S(=O)(=O)c1cccs1 | -13 | .
COc1ccccc1-c1c(C)nn2c(NCC(OC)OC)cc(C)nc12 | -0.2 | .
CCc1nn(CCCC(=O)N(C)Cc2ccccc2)c(=O)c2cc3occc3n12 | -4.1 | 0.1
CC(=O)Nc1ccc(Br)c(C(F)(F)F)c1 | 3.6 | -0.5
CC(=O)N1CC2(NC(=O)c3ccccc3N2)c2ccccc21 (centres undefined) | -4.2 | -0.2
